Compound activity as filed in PubChem BioAssay.
Mtb betalactam = beta-lactam sensitization of Mtb H37Rv; inhibition, % at 25 µM; M. tuberculosis H37Rv growth with meropenem, percent inhibition; hits of this screen are not shown here; 330,000 tested, 0.27% active; AID 434955;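 active = about 74% or more and at least 40 points above the plate without the antibiotic, then above 30% in a dose series; inconclusive = first-round hits that could not be retested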;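 also: growth measured after seven days incubation then overnight dye step; 0% = bacteria only wells and 100% = bacteria with antibiotic; twin plates without the antibiotic show which effects depend on it; some results filed as inactive read as strong as hits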
Mtb growth = M. tuberculosis H37Rv growth inhibitors, H37Rv strain (AID 1626). M. tuberculosis H37Rv growth inhibition; higher % means a stronger effect. inhibition, % at 10 µM; hits with a dose series show IC50 in µM. 220,000 tested, 0.95% active;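 active = confirmed in a dose series; inconclusive = inhibition above 80% but not taken into the dose series; inactive = below 80% or under 30% at every dose of the series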;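 also: bacteria incubated seven days before Alamar blue readout; 0% = bacteria only wells and 100% = bacteria with antibiotic wells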
RecA intein inh = Mtb RecA intein splicing inhibition; cell-free RecA intein splicing, fluorescence; inhibition, %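 (about 9 µM by stock and volumes)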; 290,000 tested, 0.75% active; in the data active = inhibition above about 30%; inconclusive = no clear call, values can overlap the other calls;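 also: 0% = vehicle wells and 100% = reference inhibitor control wells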
Target sequence (P9WHJ3 whole entry, looked up): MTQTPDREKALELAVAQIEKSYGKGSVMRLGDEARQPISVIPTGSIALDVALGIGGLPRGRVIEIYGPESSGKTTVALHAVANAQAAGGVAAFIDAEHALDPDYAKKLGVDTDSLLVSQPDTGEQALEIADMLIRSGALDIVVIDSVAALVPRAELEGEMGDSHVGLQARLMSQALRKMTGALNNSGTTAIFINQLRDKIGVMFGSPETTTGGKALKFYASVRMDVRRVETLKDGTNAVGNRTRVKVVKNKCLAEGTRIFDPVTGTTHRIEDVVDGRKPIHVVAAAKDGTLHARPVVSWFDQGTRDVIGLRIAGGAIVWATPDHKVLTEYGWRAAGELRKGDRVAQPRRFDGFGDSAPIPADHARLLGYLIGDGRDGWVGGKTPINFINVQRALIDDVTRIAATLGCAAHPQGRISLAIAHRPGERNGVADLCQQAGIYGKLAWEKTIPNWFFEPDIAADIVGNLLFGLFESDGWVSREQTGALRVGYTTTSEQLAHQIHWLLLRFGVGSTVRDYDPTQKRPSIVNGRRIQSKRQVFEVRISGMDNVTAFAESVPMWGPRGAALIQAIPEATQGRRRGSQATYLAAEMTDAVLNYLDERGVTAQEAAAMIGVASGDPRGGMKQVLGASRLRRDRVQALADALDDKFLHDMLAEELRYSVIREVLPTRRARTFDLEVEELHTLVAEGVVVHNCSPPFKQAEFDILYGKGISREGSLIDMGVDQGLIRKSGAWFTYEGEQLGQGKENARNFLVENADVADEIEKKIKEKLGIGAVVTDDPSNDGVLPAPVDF
Arbovirus inh = blocks arbovirus infection | arbovirus infection cell-based antiviral screen | inhibition, % at 10 µM | 200,000 tested, 0.37% active | AID 1251;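 active = inhibition from about 30%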;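 also: bluetongue infection of BSR cells; cell survival read as ATP light after 72 h; 0% = infected wells without compound and 100% = uninfected wells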
YopH PTP inh = inhibitors of Yersinia enterocolitica YopH tyrosine phosphatase; fluorescence Ex485/Em525; inhibition, %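 (about 10 µM by stock and volumes)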; 140,000 tested, 0.16% active; AID 898;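 active = inhibition of 50% or more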;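 also: controls were vehicle for no effect and minimum signal wells for full effect; inactives centre near -20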
Arbovirus inh repeat = recorded beside Arbovirus inh, whose call it bears; inhibition, %; measured here: 10K subset replicate screen; many hits read low in the repeat;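 first of two repeat runs on a subset; 0% = infected and 100% = uninfected wells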
The depositor's hits bear a star; u = inconclusive; x = no result given. These rows are one share of the data; rates above refer to the full screens.

SMILES	Mtb betalactam	Mtb growth	RecA intein inh	Arbovirus inh	YopH PTP inh	others
CC(=O)Oc1ccccc1N(C(C)=O)S(=O)(=O)c1ccc2ccccc2c1	-7	-1%	2.9	-4	x
CCN(CC)c1ccc(N=Cc2c(O)n(-c3ccc(OC)cc3)c(=O)[nH]c2=O)cc1	25	-4%	-2.3	-3	-20
COCCNC(=O)/C=C/c1c(Cl)cccc1Cl	-2	5%	1.6	1	-6
CCCC(=O)Nc1cccc2c1CCCC2	9	1%	0.2	-1	-41
Cc1ccc(-c2ccc(=O)n(CC(=O)NCCCN3CCCCC3)n2)cc1	11	-9%	-1.3	-4	-14
COC(=O)C/C=C/[C@@H](C)[C@@H](/C=N/O[C@@H](C)c1cn([C@H](CO)Cc2ccccc2)nn1)NS(=O)(=O)c1ccc(C)cc1	-5	x	-0.9	8	-22
O=[N+]([O-])c1ccc(-c2cnc(SC(c3ccccc3)c3ccccc3)[nH]2)cc1	2	-4%	-5.5	10	-13
CCCCCCCNC(=O)C1(CC2CC(c3cccc(Br)c3)=NO2)CCNCC1 (centres undefined)	100	x	-1.0	x	x
Cc1onc(-c2ccccc2Cl)c1C(=O)N1CCCCC1C(=O)O (centres undefined)	-6	-4%	0.1	2	-44	Arbovirus inh repeat=4
Cc1ccc2c(C(=O)CN3CCSCC3)c(C)[nH]c2c1	-6	37%	1.2	-7	3
Cc1nn(C)cc1/C=N/NC(=S)Nc1ccc(Cl)cc1Cl	4	-6%	2.1	7	-26
O=C(NCc1cccc(C(F)(F)F)c1)c1cccc(Cl)c1Cl	5	7%	-0.3	-4	-25
COc1ccccc1-n1ccnc(SCC(=O)NCc2ccccc2Cl)c1=O	1	x	0.3	x	x
Nc1ccccc1C(=O)Nc1nccs1	-9	0%	x	3	x
O=C(Nc1cc(S(=O)(=O)N2CCOCC2)ccc1N1CCCC1)c1ccc2c(c1)S(=O)(=O)c1ccccc1C2=O	21	3%	5.4	5	x
O=[N+]([O-])c1ccccc1/C=C/C=N/Nc1ccc(S(=O)(=O)Nc2ccc(Cl)cc2)cc1[N+](=O)[O-]	46	18%	1.9	6	x
CCN1CCN(C(=O)c2cc3sccc3n2CC(=O)c2ccccc2)CC1	-10	1%	-0.4	6	-2
CC(C)CCNC(=O)CO/N=C/c1ccccc1OC(F)F	-7	0%	-1.2	4	-28
Clc1c(OCCCn2ccnc2)ccc2ccccc12	95	x	9.1	x	x
CCCc1nn2c(=O)cc(CSCC(=O)Nc3ccc(OC)cc3)nc2s1	-5	x	-7.5	x	x
CCN(CC)c1ccc([N+](=O)[O-])cc1/C=N/NC(=O)CC#N	-8	-6%	2.4	-7	-21
COc1cc(/C=N/n2c(=S)[nH]nc(C)c2=O)cc([N+](=O)[O-])c1O	7	8%	3.4	0	x
CCN(Cc1cc2cc(OC)ccc2[nH]c1=O)C(=O)c1ccncc1	-4	2%	-5.0	2	-28
Cc1noc(C)c1C(=O)NCCCN1CCCC1=O	3	-2%	-0.2	5	-4
CCc1ccc(N=C2N=C(N)c3ccccc32)cc1	86	u	-0.5	-3	-19
CC(c1ccc(F)cc1)n1cc(C(=O)NCc2ccc3c(c2)OCO3)nn1 (centres undefined)	-3	3%	-3.0	3	-36
NC(=O)c1cc(S(=O)(=O)N2CCCC2)ccc1OCc1ccc(F)cc1	0	x	0.1	x	x
CC(C)CN(C(=O)c1ccc(Br)o1)C1CCS(=O)(=O)C1 (centres undefined)	-8	x	0.0	x	x
N#Cc1c(Cl)nc2c(c1C#N)CCCC2	0	-10%	3.5	x	x
CC(C)(C)OC(=O)[C@H](Cc1ccccc1)NC(=O)c1nc[nH]c1C(=O)NCC(=O)OCc1ccccc1	-5	x	3.7	x	x
CC(=O)N1CCC(N(CCN2CCOCC2)C(=S)Nc2ccccc2C)CC1	3	5%	-4.8	6	-8
Cc1cc(NC(=O)CSc2ncn[nH]2)no1	-4	-3%	-0.6	5	x
O=C(c1ccccc1F)N1C(=O)c2cccc3cccc1c23	43	13%	-3.8	-2	x
N#C/C(C(N)=O)=C1/SC=C(c2ccccc2)N1c1ccccc1	-2	-10%	-3.1	x	x
C(=N\N(c1ccccc1)c1ccccc1)/c1ccc2c(c1)OCO2	8	2%	4.3	-8	-26
Cc1ccc(C)c(NS(=O)(=O)c2ccc3oc(=O)ccc3c2)c1	-11	x	-1.5	x	x
N#CCSc1nc(-c2ccccc2)cs1	-1	10%	-2.0	4	30
CS(=O)(=O)c1nc([N+](=O)[O-])nn1CCCc1ccccc1	67	x	51*	x	x
Cc1ccc(N2C(=O)N(CC(=O)Nc3ccccc3C)C(=O)C2C)cc1 (centres undefined)	4	x	-0.8	x	x
COc1ccc(OC)c2sc(N3CCN(C(=O)c4ccc5ncsc5c4)CC3)nc12	-6	x	-6.5	x	x
COC(=O)N1C(=O)[C@](CC(C)C)(c2ccccc2)N1C(=O)OC	27	x	1.3	x	x
COc1ccccc1N1CCN(C(=O)COc2ccc(S(=O)(=O)NC(C)C)cc2)CC1	0	-1%	1.6	1	x
Cc1cc(F)ccc1NCC(=O)Nc1ccc(Br)cc1C	x	2%	0.4	6	-3
Cc1nn(CC(=O)NCc2ccccc2Cl)c(C)c1[N+](=O)[O-]	9	-8%	x	-4	-24
Cc1c(NC(=O)c2cc(-c3ccc(Cl)c(Cl)c3)on2)c(=O)n(-c2ccccc2)n1C	5	x	1.1	x	x
O=c1c2ccccc2nc(/C=C/c2ccccc2O)n1-c1ccccc1O	-1	x	3.2	x	x
Cc1cccc(C(=O)Nc2scc(CC(C)C)c2C(=O)O)c1	9	-2%	-25	65*	-11
CCOc1ccc(C2C(C(=O)NC)=C(C)Nc3nc4ccccc4n32)cc1OC (centres undefined)	-1	-3%	-8.1	3	-24	Arbovirus inh repeat=2
CC(C)OCCCNC(=O)C1CCN(S(=O)(=O)c2ccc3nc4c(c(C(=O)O)c3c2)CCCCC4)CC1	1	x	0.6	x	x
O=C(c1cccc(F)c1)N1CCCC(C(=O)N2CCCC2)C1 (centres undefined)	-1	-6%	0.6	3	-48
Cc1cc(=O)[nH]c(SCC(=O)NCCC2=CCCCC2)n1	-5	0%	2.4	1	x
Cc1ccc(NC(=O)CN(C)Cc2cc(=O)n3ccsc3n2)cc1	-3	-2%	1.2	x	x
CN1CCN(C(=S)c2ccc(Br)cc2)CC1	-5	6%	0.7	1	-31
COc1cc(/C=C2/C(=O)NN(c3ccc(Cl)c(Cl)c3)C2=O)cc([N+](=O)[O-])c1O	41	x	3.8	x	x
COc1ccc(C(=O)Nn2c(SCC(=O)NCc3ccco3)nc3ccccc3c2=O)cc1	-7	-14%	-2.6	0	-20
COc1cccc(/C=N/NC(=S)Nc2cccnc2)c1	8	4%	x	0	x
O=C(CCS(=O)(=O)c1ccc(Cl)cc1)Nc1nc(-c2ccncc2)cs1	16	x	-0.1	x	x
O=C(CCCN1C(=O)/C(=C\c2cccs2)SC1=S)Nc1ccc(C(=O)O)cc1	7	-2%	14	18	x
O=C(N/N=C\c1ccc([N+](=O)[O-])s1)c1cncc(Br)c1	99	u	-4.0	-42	-12
O=C(NCc1ccncc1)C(F)(F)C(F)(F)C(=O)NCc1ccncc1	0	-5%	-3.8	-3	-39	Arbovirus inh repeat=0
New compounds follow.
SMILES	Mtb betalactam	Mtb growth	RecA intein inh	Arbovirus inh	YopH PTP inh	others
COc1ccc(-n2c(O)c(/C=N/NS(=O)(=O)c3ccc(C)cc3)c3ccccc3c2=O)cc1OC	0	-3%	-28	6	-27
O=C(Nc1ccc(Cl)cc1)c1ccc2snnc2c1	0	x	-1.0	x	x
COc1ccccc1N1CCN(CCCNC(=O)Nc2ccccc2C)CC1	-2	-3%	-5.7	14	-18
COCCSc1ccccc1C(=O)Nc1cccnc1	-11	-5%	-1.1	2	-17
COC(=O)c1sc(N)c(C(=O)OC)c1Cn1ncc(Cl)c(Cl)c1=O	16	x	31*	x	x
Cc1ccc(C2=NS(=O)(=O)N(C)C(C(=O)Nc3ccc(F)cc3F)=C2)cc1	3	x	2.7	x	x
C=CCNc1nc2ccccc2nc1NS(=O)(=O)c1ccc(F)cc1	u	x	-1.4	x	x
Cc1cc(C)cc(NC(=O)Cn2c(SCc3cc(C)ccc3C)nc3ccncc32)c1	x	13%	x	-3	-36
CCC(=O)Nc1cccc(NC(=O)c2ccccc2Br)c1	11	13%	-3.2	-7	-7
Cc1ccn2c(C(=O)CSc3ccccc3)c(C)nc2c1	4	10%	9.8	2	x
CCc1nnc(NC(=O)C2CCCN(c3nc4ccccc4s3)C2)s1 (centres undefined)	4	13%	-0.1	9	-20
CC(C)c1ccc(OCC(O)CN2CCCC2)cc1 (centres undefined)	-4	x	0.4	x	x
C=CCn1c(O)c(C(CC)=NCc2ccco2)c(=O)[nH]c1=O	-6	0%	1.4	x	x
NC(=O)NC(=O)CSc1nnc(-c2ccc(Cl)cc2)n1CC1CCCO1 (centres undefined)	-9	-7%	x	1	x
O=C(CN1C(=O)NC2(CCCCC2)C1=O)NC1CCCc2ccccc21 (centres undefined)	5	-3%	-1.5	-7	-13
CC(CCc1ccccc1)NC(=O)c1nnc(Cc2ccc(Cl)cc2)o1 (centres undefined)	2	14%	1.4	-1	-41
Cc1ccc2[nH]c(CN3CCC(CO)(CC4CCCCO4)CC3)c(C)c2c1 (centres undefined)	2	12%	-0.5	-2	x
COc1ccc2nc3oc(C(=O)N4CC(C)CC(C)C4)cc3cc2c1 (centres undefined)	29	x	3.8	x	x
COc1ccc(C(C(=O)NC(C)(C)C)N(C(=O)CCC(=O)Nc2cc(C)on2)c2c(C)cccc2C)cc1 (centres undefined)	8	x	-0.3	x	x
COc1ccc(C(=O)O/N=C/c2ccc(S(=O)c3ccc(Cl)cc3)nc2)cc1 (centres undefined)	5	2%	0.0	-8	-38
CCOC(=O)c1c(N)n(CC(C)NC(=O)C2CC2)c2nc3ccccc3nc12 (centres undefined)	x	-8%	x	1	11
CC(=O)C1C(=O)C=C(c2ccco2)CC1c1ccccc1 (centres undefined)	2	5%	-0.1	-5	-28
CC[C@H](C)[C@@H](NC(=O)O[C@@H]1C(=O)c2cc(OC)ccc2O[C@H]1c1ccc(OC)c(Br)c1)C(=O)OC	-6	-11%	x	-1	-23
Cc1nc2cc(NC(=O)CS(=O)(=O)c3ccc(F)cc3)ccc2s1	-10	x	-0.8	x	x
O=C(O)c1cccnc1SCC(=O)N1CCCCCC1	-11	-6%	1.0	5	-24
O=C(Nc1ccccc1N1CCOCC1)c1cc(F)cc(F)c1	1	-5%	-0.9	-1	x
O=C(Nc1ccccc1Br)c1c(F)cccc1Cl	5	-3%	-3.5	20	x
COc1ccc(S(=O)(=O)N2CCN(CCC(=O)Nc3ccccc3F)CC2)cc1	1	-2%	x	4	-15
Cc1ccc(C)c(S(=O)(=O)N2CCCCC2CCNC(=O)C(=O)NC2CCCC2)c1 (centres undefined)	3	x	4.0	x	x
COc1ccc(-c2nn(-c3ccccc3)cc2C(=O)O)cc1	-1	10%	0.0	4	-12	Arbovirus inh repeat=6
Cc1cc([N+](=O)[O-])nn1CCCC(=O)NCc1ccc(F)cc1	-6	0%	0.5	9	x
O=C(c1ccc2c(c1)OCO2)N1CCN(C(=O)c2ccco2)CC1	-4	-2%	1.3	2	-17
O=C(Nc1cccc(Cl)c1)N(Cc1nc2ccccc2c(=O)[nH]1)C1CCCC1	9	72%	7.3	3	-14
Cc1ccc(CN2CCN(/N=C/c3ccc(C)s3)CC2)c(C)c1	-9	0%	-0.1	19	-30
COc1ccc(-c2noc(CN(C)C(=O)c3ccco3)n2)cc1	4	x	0.4	x	x
COc1ccc(S(=O)(=O)n2ccc(-c3ccc4c(c3)CCC(C)(C)O4)n2)cc1	-5	4%	3.3	x	x

7 compounds out of the list, sorted by SMILES length, descending:
SMILES	Mtb betalactam	Mtb growth	RecA intein inh	Arbovirus inh	YopH PTP inh	others
Cc1ccc(C)c(S(=O)(=O)N2CCCCC2CCNC(=O)C(=O)NC2CCCC2)c1 (centres undefined)	3	x	4.0	x	x
O=C(Nc1cccc(Cl)c1)N(Cc1nc2ccccc2c(=O)[nH]1)C1CCCC1	9	72%	7.3	3	-14
Cc1cc([N+](=O)[O-])nn1CCCC(=O)NCc1ccc(F)cc1	-6	0%	0.5	9	x
O=C(c1ccc2c(c1)OCO2)N1CCN(C(=O)c2ccco2)CC1	-4	-2%	1.3	2	-17
Cc1ccc(CN2CCN(/N=C/c3ccc(C)s3)CC2)c(C)c1	-9	0%	-0.1	19	-30
COc1ccc(-c2noc(CN(C)C(=O)c3ccco3)n2)cc1	4	x	0.4	x	x
O=C(Nc1ccccc1Br)c1c(F)cccc1Cl	5	-3%	-3.5	20	x
